# HNF4A DNA FP = change in binding of human HNF4 alpha to DNA; HNF4a-FITC DNA binding, fluorescence polarization, 1 h; activity change, % at 10 µM; 360,000 tested, 0.3% active; in the data active = activity change above about 30%, passing the limit was not always enough;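 note: controls were the assay level and a saturating level of protein; the project sought stronger binding though the title names inhibitors; some compounds called inactive have numbers as strong as hits; positive values seem to mean higher polarization but the record does not say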
# Target sequence (P41235 whole entry, looked up): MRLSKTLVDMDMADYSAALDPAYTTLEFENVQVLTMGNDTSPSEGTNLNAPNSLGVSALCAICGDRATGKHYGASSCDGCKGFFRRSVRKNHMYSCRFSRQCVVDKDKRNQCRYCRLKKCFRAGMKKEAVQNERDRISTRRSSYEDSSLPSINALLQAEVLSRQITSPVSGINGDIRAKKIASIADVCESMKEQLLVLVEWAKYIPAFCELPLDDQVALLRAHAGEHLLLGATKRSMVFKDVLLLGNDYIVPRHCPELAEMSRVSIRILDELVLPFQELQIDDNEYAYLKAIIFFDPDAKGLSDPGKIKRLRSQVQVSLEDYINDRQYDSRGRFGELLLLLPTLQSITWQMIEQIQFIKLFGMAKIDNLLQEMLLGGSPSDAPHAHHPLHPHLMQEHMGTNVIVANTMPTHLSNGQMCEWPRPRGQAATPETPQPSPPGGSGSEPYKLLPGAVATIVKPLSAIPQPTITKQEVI
# FGF22 binding = binders of recombinant human FGF22 by thermal shift; SYPRO orange fluorescence; percent of sucrose octasulfate shift, DMSO zero; calls only at 9.99 µM; 340,000 tested, 1.5% active;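 active = melting point raised past a set limit in the mean and every replicate; three in four hits are not shown here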
# Target sequence (Q9HCT0 whole entry, looked up): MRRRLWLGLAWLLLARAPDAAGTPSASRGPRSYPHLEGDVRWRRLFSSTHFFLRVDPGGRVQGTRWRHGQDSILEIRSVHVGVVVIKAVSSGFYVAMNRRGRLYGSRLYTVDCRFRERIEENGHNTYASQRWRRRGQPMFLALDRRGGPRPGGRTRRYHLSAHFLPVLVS
# * = called active by the depositor; i = inactive; · = no result given; + = active, no number.
FGF22 binding | HNF4A DNA FP | SMILES
i | -1.1 | O=C(/C=C/[C@H]1O[C@@H](n2cnc3c(NC(=O)c4ccccc4)ncnc32)[C@H](O)[C@@H]1O)NCC1CCCO1 (stereo partly specified)
i | -14.2 | O=C(Nc1cccc2c(=O)[nH][nH]c(=O)c12)c1ccc([N+](=O)[O-])cc1
i | 3.3 | COCCCNC(=O)C[C@@H]1C[C@@]2(C(=O)OC)CCCCC=C2N(Cc2ccc(Cl)cc2Cl)C1=O
i | 1.1 | CCCCn1nnnc1C(c1ccccc1)N1CCN(C)CC1 (stereo unspecified)
· | 1.3 | CS(=O)(=O)c1ccc(C(=O)OCC(=O)N2CCN(CCC3CCCCC3)CC2)cc1[N+](=O)[O-]
i | -0.6 | CCOC(=O)C1(C)CCN1C(=O)c1cncc(Br)c1 (stereo unspecified)
i | 1.5 | O=C(COC(=O)Cn1cnc2ccccc21)Nc1ccc(Br)cc1
i | -0.2 | CN(C(=O)C1CC1)c1ccccc1

# Next part:
FGF22 binding | HNF4A DNA FP | SMILES
i | -10.1 | C=CCNC(=O)c1ccsc1N
i | 0.9 | COc1cc(C(=O)C(=O)N2CCN(c3ccccc3)CC2)cc2ccccc12
i | 2.6 | COc1ccc(-c2cc(NC=O)c3ncc(-c4cccc(C(=O)N(C)C)c4)n3c2)c(OC)c1
i | 0.2 | COc1ccc(S(=O)(=O)N2CC=C(c3ccccc3)CC2)cc1OC
i | -0.1 | CCOC1CCCc2oc(-c3ccc(OC)cc3)c(C(=O)NCCCCO)c21 (stereo unspecified)
i | 1.6 | COCCNC(=O)C1CCCN(C(=O)c2sccc2C)CC1 (stereo unspecified)
i | 0.2 | Cc1ccc(C(O)c2ncc(-c3cccc4ccccc34)[nH]2)c(C)c1 (stereo unspecified)
i | -0.1 | NNC(=O)Cc1cc(=O)[nH][nH]1

# Record cards (already shown):
# CCOC1CCCc2oc(-c3ccc(OC)cc3)c(C(=O)NCCCCO)c21 (stereo unspecified) in the list: FGF22 binding: i; HNF4A DNA FP: -0.1
# NNC(=O)Cc1cc(=O)[nH][nH]1 in the list: FGF22 binding: i; HNF4A DNA FP: -0.1

# Other structures follow:
FGF22 binding | HNF4A DNA FP | SMILES
i | 1.4 | COC(=O)c1ccc(Cn2c(C)c(C(=O)NCc3cccs3)sc2=O)o1
i | 18.7 | O=C1CSC(=S)N1N=Cc1c[nH]c2ccc(Br)cc12
i | 2.1 | CN(C)S(=O)(=O)c1cccc(NC(=O)C2CCCN(C(=O)c3ccc(Cl)cc3)C2)c1 (stereo unspecified)
i | 1.2 | CCOc1ccc(OCCC(=O)OCC(=O)c2c(N)n(CC(C)C)c(=O)n(C)c2=O)cc1
i | 6.5 | Cc1ccc(NC(=O)C2(C)CCN2C(=O)CCC2CCCC2)cc1C (stereo unspecified)
i | 6.5 | CCCCCNC(=O)C1C(=O)Nc2ccccc2C(=O)N1C(C)(C)C (stereo unspecified)
i | -7.0 | CC(=O)Nc1cc(-c2ccccc2N(C)C)cn2c(-c3ccc(F)c(Cl)c3)cnc12
i | 0.2 | COc1ccccc1CNc1nc(NC(C)C)nc2ccsc12

# Next part.
FGF22 binding | HNF4A DNA FP | SMILES
i | 1.0 | CCOC(=O)CC1(C)N(S(=O)(=O)c2ccc(C)cc2)c2ccccc2N1S(=O)(=O)c1ccc(C)cc1
i | 4.1 | C[C@@H]1CN([C@H](C)CO)C(=O)CCCn2nncc2CO[C@@H]1CN(C)S(=O)(=O)c1ccccc1F
i | -1.0 | Cc1ccc(S(=O)(=O)NC(=O)C2(C)CCN2C(=O)Cc2cccs2)nc1 (stereo unspecified)
i | 4.8 | Cc1cccnc1NC(=O)Nc1cccc(F)c1
i | 0.2 | CN(C)CC(=O)N[C@@H]1C=C[C@@H](CC(=O)NCCN2CCCCC2)O[C@@H]1CO
i | 2.1 | OC(c1cccc(Cl)c1)c1nc(-c2csc3ccccc23)cs1 (stereo unspecified)
i | -0.1 | COc1ccc([C@H]2C[C@@H](O)C[C@@H](CCn3cc(-c4ccccc4)nn3)O2)cc1
i | -3.1 | Cc1ccc([C@H]2C[C@@H](n3cc(C4CC4)nn3)[C@H](O)CN2CC2CCCCC2)cc1

# Additional compounds follow.
FGF22 binding | HNF4A DNA FP | SMILES
i | 4.5 | C[C@H]1COc2cccc(N3CCC[C@@H]3CO)c2S(=O)(=O)N1
i | -2.5 | CCOC(=O)c1csc(-c2csc(CCNC(=O)c3ccccc3)n2)n1
i | 4.5 | CCCCn1nnnc1C(c1cc2ccccc2o1)N1CCN(C(=O)OC(C)(C)C)CC1 (stereo unspecified)
i | 0.1 | CCCS(=O)(=O)NC(=O)C1(C)CCN(C(=O)c2c(C)noc2C)C1 (stereo unspecified)
i | 0.9 | CNc1ccc(Cl)cc1S(=O)(=O)c1ccccc1[N+](=O)[O-]
i | -5.2 | CC1(C(=O)NCc2ccccc2)Cc2c(-c3cccc(C(F)(F)F)c3)ccnc2O1 (stereo unspecified)
i | 2.4 | COC(=O)C1(C(=O)OC)C[C@H](c2ccccc2)N(Cc2ccccc2OC)[C@@H]1c1ccccc1
i | 3.7 | NC(CO)c1csc(Nc2ccc(C(F)(F)F)cn2)n1 (stereo unspecified)

# The results go on:
FGF22 binding | HNF4A DNA FP | SMILES
i | 3.2 | CCCCCCCCN1C(=O)[C@H](CC(=O)NCc2cccc3ccccc23)C[C@@]2(C(=O)OC)CC(C)(C)CC=C12
i | -0.6 | Cc1noc(C)c1C(=O)N1CCC1(C)C(=O)NS(=O)(=O)c1cccc(F)c1 (stereo unspecified)
i | 0.7 | COc1cc(C(O)c2nc(-c3cccc(F)c3)cs2)ccc1F (stereo unspecified)
i | -1.2 | Cc1ccc(S(=O)(=O)N(C)c2ccc(C(=O)NC3CCCCC3)cc2)cc1
i | 1.1 | CCCS(=O)(=O)NC(=O)C1(C)CCCN(C(=O)c2cccc(OC(F)(F)F)c2)C1 (stereo unspecified)
i | 4.3 | CC(C)c1ccc(CNC(=O)C2(C)CCCN2C)cc1 (stereo unspecified)
i | -3.8 | CC(=O)c1ccc(Cc2ccc(C(C)=O)s2)s1
i | -1.5 | COc1ccc(OC)c(CN2C(=O)CCC2(C)c2nnnn2Cc2ccccc2)c1 (stereo unspecified)

# By substructure: the compounds so far with a thiophene ring, fused or not (7)
FGF22 binding | HNF4A DNA FP | SMILES
i | -10.1 | C=CCNC(=O)c1ccsc1N
i | 1.6 | COCCNC(=O)C1CCCN(C(=O)c2sccc2C)CC1 (stereo unspecified)
i | 1.4 | COC(=O)c1ccc(Cn2c(C)c(C(=O)NCc3cccs3)sc2=O)o1
i | 0.2 | COc1ccccc1CNc1nc(NC(C)C)nc2ccsc12
i | -1.0 | Cc1ccc(S(=O)(=O)NC(=O)C2(C)CCN2C(=O)Cc2cccs2)nc1 (stereo unspecified)
i | 2.1 | OC(c1cccc(Cl)c1)c1nc(-c2csc3ccccc23)cs1 (stereo unspecified)
i | -3.8 | CC(=O)c1ccc(Cc2ccc(C(C)=O)s2)s1

# (next part)
FGF22 binding | HNF4A DNA FP | SMILES
i | -2.0 | COCCCNC(=O)c1ccc2sc([C@@H]3O[C@H](CO)[C@H](O)[C@H](O)[C@H]3O)nc2c1
i | 1.8 | CCOc1cc(N2CCOCC2)c(OCC)cc1NC(=O)c1ccccc1N1CCCC1=O
i | 0.0 | Cn1ncc([N+](=O)[O-])c1C(=O)Nc1ccccc1C#N
i | -3.1 | CCOC(=O)C1(C)CCN1C(=O)c1ccccc1Br (stereo unspecified)
i | 0.6 | CCc1ccc2cc(C)cc(C)c2n1
i | -2.7 | CCOc1ccc(N(CC(=O)Nc2ccc(Cl)cc2)S(C)(=O)=O)cc1
i | 1.2 | COC(=O)C1=C(C)NC(C)=C(C(=O)OC)C1C(=O)OCC(=O)NC1CCCCC1C (stereo unspecified)
i | 2.2 | Cn1nc(C(C)(C)C)cc1C(=O)N1CCCCC1c1cc(C(=O)Nc2ccc3c(c2)OCO3)no1 (stereo unspecified)

# Remaining list, next part.
FGF22 binding | HNF4A DNA FP | SMILES
i | 2.5 | CCCCOc1ccc(C(=O)NCC(=O)N2CCN(C/C=C/c3ccccc3)CC2)cc1
i | 1.9 | CSc1ncnc2c1ncn2CCCN1CCN(c2ccccn2)CC1
i | 7.3 | Cc1ccccc1S(=O)(=O)NC(=O)C1(C)CCN1C(=O)COc1ccc(Cl)cc1 (stereo unspecified)
i | -4.5 | Cc1ccc([C@@H]2C[C@H]3[C@@H](CN2S(=O)(=O)c2ccc(C)cc2)C(=O)C[C@@H](c2ccc(Cl)cc2)N3S(=O)(=O)c2ccccc2C)cc1
i | 11.3 | Cc1cc(C)n2c(NC3CCCC3)c(-c3cc4ccccc4o3)nc2n1
i | 2.1 | CCOC1=C2CN(S(=O)(=O)c3ccc(C)cc3)C(c3ccc(CC)cc3)CC2n2c(=O)n(-c3ccccc3)c(=O)n2C1 (stereo unspecified)
i | -0.9 | CCOC(=O)C1CCN(C(=O)c2ccccc2)c2scc(-c3ccccc3)c2C1=O (stereo unspecified)
i | 2.7 | CNc1cccc(-c2ccccc2CO)n1

# Next part.
FGF22 binding | HNF4A DNA FP | SMILES
i | 0.6 | Cc1cn([C@H]2C[C@H](O)[C@@H](/C=C/C(=O)NCCN3CCCCC3)O2)c(=O)[nH]c1=O
i | 2.6 | CCCCCCCCN1C(=O)[C@H](CC(=O)NCCCOC)C[C@@]2(C(=O)OCC)CCCC=C12
i | 9.1 | COc1ccc(-c2nc3ccc(Cl)cn3c2Cc2cccc(Cl)c2)cc1OC
i | 0.8 | O=C(CCc1nnc(Cc2c[nH]c3ccccc23)o1)NCCC1CCCCO1 (stereo unspecified)
i | -1.7 | CCCCNC(=O)C1(C)CCCCCN1Cc1cc2ccccc2o1 (stereo unspecified)
i | 2.2 | CC1(c2ccc(F)cc2)OC(=O)c2c1ccc1ccccc21 (stereo unspecified)
i | 0.7 | NC(c1csc(Nc2cnccn2)n1)C1CCCCC1 (stereo unspecified)
i | -1.6 | COC(=O)C[C@H]1C[C@H]2c3cc(NC(=O)Nc4ccc(F)cc4)ccc3O[C@H]2[C@@H](CO)O1

# Carrying on.
FGF22 binding | HNF4A DNA FP | SMILES
i | 5.4 | COc1ccc(C(C(=O)NC(C)(C)C)n2c(=O)c(-c3cc4ccccc4[nH]3)nc3ccccc32)cc1 (stereo unspecified)
i | -2.9 | CSc1ccc(CN2CCC2(C)C(=O)NC2CCN(Cc3ccccc3)CC2)cc1 (stereo unspecified)
i | 0.1 | CCC(CC)C(=O)N(C)c1c(C)nc2c(OCc3ccc(OC(F)F)cc3)cccn12
i | 3.1 | Cc1ccccc1S(=O)(=O)NC(=O)C1(C)CCN1C(=O)CC1CCCCC1 (stereo unspecified)
i | 0.8 | COc1cccc(-c2nc3nc(C)cc(C)n3c2NCc2ccccc2)c1
i | -0.5 | O=C(COC(=O)c1ccc2c(c1)OCCO2)NCc1ccc(Cl)cc1
i | 5.7 | CC(CC(=O)Nc1ccc2c(c1)c(=O)n(C)n2Cc1cccc(C(F)(F)F)c1)C(F)(F)F (stereo unspecified)
i | 4.1 | CC(=O)Nc1cnc(-c2ccc3c(c2)OCO3)cn1

# Continuation:
FGF22 binding | HNF4A DNA FP | SMILES
i | -1.2 | C[C@@H]1CCCN1[C@H]1CS(=O)(=O)N[C@@H]1COCc1ccccc1
i | -1.2 | CCCCN1C(=O)C(CC(=O)NCc2cccs2)CC(C(=O)N2CCCCCC2)=C1C (stereo unspecified)
+ | -0.8 | COc1cccc(CNC(=O)C2(C)CCCCN2C)c1 (stereo unspecified)
i | 1.0 | Cc1cccc(NC(=O)Oc2ccc(Cl)c3cccnc23)c1
i | -0.3 | CC(=O)N1c2ccccc2N=C(c2ccc(C(F)(F)F)cc2)C1C(=O)NC(C)C (stereo unspecified)
i | 3.6 | O=C1NN(c2ccccc2)C(=O)C1=Cc1ccccc1O
i | 2.8 | COCOc1cccc(CN2CCC2(C)C(=O)Nc2ccc(OC)c(OC)c2)c1 (stereo unspecified)
· | -1.9 | COCCCNC1=C(C#N)C(=O)NC(c2cccs2)S1 (stereo unspecified)

# The list continues.
FGF22 binding | HNF4A DNA FP | SMILES
i | 0.6 | Cc1ccccc1C(=O)Nc1nnc([C@@H]2C[C@H](O)[C@@H](CO)O2)s1
i | -2.3 | CC(C)C#Cc1ccc2c(c1)O[C@@H](CN(C)C(=O)c1cnccn1)[C@@H](C)CN([C@@H](C)CO)S2(=O)=O
i | 0.9 | COC(=O)C1=C/CCCN(C(c2ccccc2)c2ccccc2)/C=C\1C(=O)OC
i | 0.0 | CC1(C(=O)NCc2cccs2)CCN1C(=O)Cc1ccc(Cl)cc1Cl (stereo unspecified)
i | -2.6 | O=C1c2ccccc2C(c2nnnn2-c2ccc3c(c2)OCCO3)N1Cc1cccs1 (stereo unspecified)
i | 0.3 | COC(=O)[C@]12CCCCC=C1N(Cc1ccccc1)C(=O)[C@H](CC(=O)NCc1ccc(OC)c(OC)c1)C2
i | -0.1 | CC1(C(=O)NS(=O)(=O)c2ccccc2C(F)(F)F)CCN1C(=O)CCC1CCCC1 (stereo unspecified)
i | 2.8 | Cc1cc(C)c2cc(C#N)c(N3CCNCC3)nc2c1

# The list goes on:
FGF22 binding | HNF4A DNA FP | SMILES
i | -12.5 | Cc1cc(Br)cn2c(Cc3ccsc3)c(-c3ccco3)nc12
i | 2.9 | COc1cc(OC)nc(Nc2nc(C(N)Cc3ccccc3)cs2)n1 (stereo unspecified)
i | -0.6 | COc1ccc(NC(=O)c2cc(-c3cc(Cl)ccc3OC)n[nH]2)c(C)c1
i | -1.7 | CCc1ccc2c(c1)NC(=O)C2(C)Cc1ccccc1 (stereo unspecified)
i | 0.8 | COC(=O)C1(C(=O)OC)c2ccccc2N(S(=O)(=O)c2ccc(C)cc2)C1CC(=O)c1ccccc1 (stereo unspecified)
i | -0.6 | CC1(C(=O)NS(=O)(=O)c2cccc(F)c2)CCN1C(=O)CCC1CCCC1 (stereo unspecified)
i | 11.3 | CN(C)CCNC(=O)c1cccc(-c2cnc3c(NC=O)cc(-c4ccccc4F)cn23)c1
i | 0.3 | CCCCNC(=O)C1(C)CCCCN1C(=O)c1ccc(F)c(C)c1 (stereo unspecified)
i | -1.7 | OCC1OC(n2cnc3c(SCc4ccccc4)nc(NO)nc32)C(O)C1O (stereo unspecified)

# Compound activity: PubChem BioAssay, several laboratories

# An excerpt; rates above refer to the full screens.
